From PubChem BioAssay
RmlCD inh mix: RmlC/RmlD inhibition, mixture screen. RmlC/RmlD coupled enzyme inhibition, 384-well mixture HTS. inhibition, % at 5.5 µM. actives 0.39% (n = 110,000). AID 1532; in the data active = inhibition above about 30%, passing the limit was not always enough; only retested compounds are shown here; note: strong numbers were not always called active
RmlCD inh mix retest: second read-out of RmlCD inh mix, no call of its own (marks repeat the call); inhibition, %; measured here: mean retest inhibition;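 single compounds in two wells; values far above 100% likely come from compound fluorescence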
The depositor's hits bear a star; i = inactive; · = no result given. Some of the compounds tested; rates above refer to the full screens.

SMILES	RmlCD inh mix	RmlCD inh mix retest
Cc1noc(/C=C/c2ccco2)c1S(=O)(=O)N1CCC(C(=O)NCc2ccco2)CC1	41	-4
COc1ccc(NC(=O)CCn2nnc(-c3ccc(C)cc3)n2)cc1OC	88	-5
O=C(c1c(F)c(F)c(F)c(F)c1F)N1CCN(c2cccc(C(F)(F)F)c2)CC1	50	5
C(=N\Nc1nc(N2CCOCC2)nc(N2CCOCC2)n1)/c1cccnc1	36	-1
COCc1cc(C)nc2sc(C(=O)OC)c(N)c12	108	-84
CCOC(=O)CSC1=NC(=O)/C(=C\c2ccc(OC(C)=O)cc2)S1	53	-7
CCCCc1nnc(SCc2ccc(OCC)cc2)n1N	59	-2
O=C(Nc1ccc(-c2nc3ncccc3o2)cc1)c1ccco1	79	28
COc1ccc(C(=O)CSc2nnc(-c3cccnc3)n2Cc2ccco2)cc1	47	2
CC/C(=N/Nc1ccccc1Cl)c1cnnc(-c2ccccc2)n1	34	2
CCCc1[nH]nc2c1C(CCC)C(C#N)=C(N)O2 (stereo not given)	44	-10
CC(OC(=O)CN1C(=O)C2CCCCC2C1=O)C(=O)Nc1ncc(Cl)cc1Cl (stereo not given)	39	-2
CC(C)CCNC(=O)Cn1c(=O)oc2cc(S(=O)(=O)N3CC(C)CC(C)C3)ccc21 (stereo not given)	40	4
O=C(CSc1nc(-c2ccco2)cc(C(F)(F)F)n1)Nc1cccnc1	121	8
COc1ccc(C(=O)OCCN2CCOCC2)cc1OC	41	0
Cc1cnc(C(=O)OCC(=O)NCCc2ccccc2)cn1	33	-17
COCCNC(=O)c1onc(CSc2ccc(F)cc2)c1C(=O)NCCOC	48	0
Cc1nn(CCOc2ccccc2)c(=O)n1-c1ccccc1F	58	1
CN(C(=O)c1cccc(C#N)c1)c1nnc(-c2ccncc2)s1	32	23
CC(=O)OC1=Cc2c(ccc3ccc(=O)oc23)OC1(C)C	34	4
CC1(C(=O)c2ccccc2)C2c3c(ccc4ccccc34)OC(=O)C21C(=O)N1CCOCC1 (stereo not given)	31	16
O=C(Nc1nccs1)c1ccc(S(=O)(=O)c2ccccc2)cc1	39	-2
CC(C)c1cc(C(=O)Nc2cccnc2)no1	82	-4
CCCCc1cc(=O)oc2c(CN(CC)CC)c(O)c(Cl)cc12	85*	127*
CNc1nnc(-c2ccc(N(C)C)cc2)s1	131	82
FC(F)(F)c1cccc(NC(=S)Nc2ccc(Cl)cc2Cl)c1	74	2
Oc1ccc(Nc2nc(-c3ccc4ccccc4c3)cs2)cc1	95	-10
CC(C)(C)NC(=O)C(c1ccccc1)N(Cc1cccs1)C(=O)c1csnn1 (stereo not given)	99	-4
CCOc1cc(C=C2C(=O)NC(=O)NC2=O)ccc1OS(=O)(=O)c1ccccc1	51	9
CC(OC(=O)CCCN1C(=O)c2ccccc2C1=O)C(=O)Nc1ncc(Cl)cc1Cl (stereo not given)	144	-16
CCCn1c(=C(C#N)C#N)s/c(=C2\C=Cc3ccccc3N2CC)c1=O	51	3
CN1CCN(CCCNC(=O)c2ccc3c(c2)N(Cc2ccccc2)CCS3)CC1	38*	49*
O=C(Nc1ccccc1)c1ccc(S(=O)(=O)NCc2ccco2)cc1	85	-2
COC(=O)CNS(=O)(=O)c1ccc(Cc2ccc(S(=O)(=O)NCC(=O)OC)cc2)cc1	67	-16
O=C(NC1CCCC1)c1cnn2c(C(F)(F)F)cc(-c3ccc4c(c3)OCO4)nc12	43	4
CC(=O)Oc1c(S(=O)(=O)c2ccccc2)c(C)nn1C(C)(C)C	46	10
COc1ccccc1N(CC(=O)NCc1ccccc1)C(=O)CCC(=O)Nc1ccccn1	103	-8
Cc1nc(-c2cnn(-c3ccccc3)c2)c2cc(C)oc2n1	53	-31
Cc1cccc(NC(=S)NN2CCOCC2)c1C	57	-2
CC1=C([N+](=O)[O-])C(c2ccccc2)C2=C(N1)c1ccccc1C2=O (stereo not given)	72	1
CCCc1cc(=O)n2[nH]c(NCc3ccccc3Cl)nc2n1	130	-13
CCc1ccc2nc(N3CCN(C)CC3)c(C#N)cc2c1	96	12
C=CCOc1ccc2c(OC)c3ccoc3nc2c1OC	34	3
COc1cc2c(cc1NC(=O)CSc1nc3ccccc3[nH]1)oc1ccccc12	95	-3
CCOc1ccc(N2CC(C(=O)Nc3ccc(F)cc3F)CC2=O)cc1 (stereo not given)	32	-4

A few values from the list.
CC(C)(C)NC(=O)C(c1ccccc1)N(Cc1cccs1)C(=O)c1csnn1 (stereo not given) in RmlCD inh mix retest reads -4
CCCCc1nnc(SCc2ccc(OCC)cc2)n1N in RmlCD inh mix retest reads -2
C(=N\Nc1nc(N2CCOCC2)nc(N2CCOCC2)n1)/c1cccnc1 in RmlCD inh mix retest reads -1
COc1ccc(C(=O)OCCN2CCOCC2)cc1OC in RmlCD inh mix retest reads 0
CCc1ccc2nc(N3CCN(C)CC3)c(C#N)cc2c1 in RmlCD inh mix retest reads 12

(next part)
SMILES	RmlCD inh mix	RmlCD inh mix retest
COC(=O)Cn1cnc2ccccc2c1=O	37	-3
COCCSc1nnc(NS(=O)(=O)Cc2ccccc2)s1	66	-8
Cc1ccc(S(=O)(=O)CC2CSc3nnc(C)c(=O)n32)cc1 (stereo not given)	34	-5
O=C(Nc1ccc(-c2nc3cc(NC(=O)c4cccs4)ccc3o2)cc1)c1cccs1	93*	90*
CN(C)CCCNS(=O)(=O)c1ccc(N2CCC(c3ccc(Cl)cc3)=N2)cc1	93*	138*
COC(=O)C(NC(=O)c1ccc(F)cc1)(Nc1nc(C)cs1)C(F)(F)F (stereo not given)	58	-5
CCCn1c(SCC(=O)Nc2cc(Cl)ccc2OC)n[nH]c1=O	31	-5
CC1CN(c2oc(-c3cccs3)nc2C#N)CC(C)O1 (stereo not given)	75*	93*
CCNc1nc(C)c2cc(Br)c(=O)n(CC)c2n1	32	41
CC(C)OCCCn1c(=N)c(C(N)=S)cc2c(=O)n3ccccc3nc21	35	28
Cc1ccc(N(C(=O)Cc2c[nH]c3ccccc23)C(C(=O)NC2CCCCC2)c2ccco2)cc1 (stereo not given)	30	-7
COC(=O)c1ccccc1Sc1c(/C=N/OCc2ccc(Cl)cc2)c(C(F)(F)F)nn1C	39	1
CNC(=O)CN(c1ccc(C(C)C)cc1)S(C)(=O)=O	91	1
CCOC(=O)C1(CC)NC(c2ccco2)C2C(=O)N(C)C(=O)C21 (stereo not given)	30	-18
Oc1ccccc1/C=N/Nc1nccnc1Cl	31	-3
COc1cccc(OC)c1C(=O)Nc1ccc(CN2CCCCC2)cc1	45	7
CC(=O)N(C(C)=O)c1ccc2nc(C)[nH]c(=O)c2c1	158	0
O=S(=O)(NCc1cccnc1)c1ccc2c(c1)OCCO2	73	-10
CCC(c1nnnn1Cc1ccc(F)cc1)N(CCCO)Cc1cc2cc3c(cc2[nH]c1=O)OCO3 (stereo not given)	64	-1
CCC(C)Nc1nc(-c2ccc3c(c2)NC(=O)CO3)cs1 (stereo not given)	31	2
COCCCn1c2nc3ccccc3nc2c2c(=O)n(Cc3ccccc3Cl)cnc21	75*	82*
CCCCn1c(=O)nc2n(-c3ccccc3)c3ccccc3cc-2c1=O	37*	57*
CCC(C)(C)n1nnnc1C(c1ccc(Cl)cc1)N1CCN(C)CC1 (stereo not given)	121	0
O=C(O)c1ccc(NCc2cccnc2)cc1	99	-1
CCCCOCCCn1c(N)c(C(=O)OCCOC)c2nc3ccccc3nc21	57*	69*
CN(C(=O)c1ccncc1)c1nnc(-c2ccccn2)s1	108*	157*
c1ccc(-n2nnnc2NCCc2c[nH]c3ccccc23)cc1	i	-12
CCOC(=O)N1CCC(NC(=O)c2cnn3c(C(F)(F)F)cc(-c4cccc(OC)c4)nc23)CC1	121*	·
COc1ccccc1-c1nnc2sc(C3CCCCC3)nn12	31	-8
CC(C)c1nc2ccccc2n1CCC(=O)O	40	1

Fetched by structure from above (5):
SMILES	RmlCD inh mix	RmlCD inh mix retest
CCOC(=O)N1CCC(NC(=O)c2cnn3c(C(F)(F)F)cc(-c4cccc(OC)c4)nc23)CC1	121*	·
CCC(C)Nc1nc(-c2ccc3c(c2)NC(=O)CO3)cs1 (stereo not given)	31	2
CC(C)c1nc2ccccc2n1CCC(=O)O	40	1
CCCCn1c(=O)nc2n(-c3ccccc3)c3ccccc3cc-2c1=O	37*	57*
COCCCn1c2nc3ccccc3nc2c2c(=O)n(Cc3ccccc3Cl)cnc21	75*	82*

Another view of two compounds above.
structure | RmlCD inh mix | RmlCD inh mix retest
COc1ccccc1-c1nnc2sc(C3CCCCC3)nn12 | 31 | -8
CC(C)c1nc2ccccc2n1CCC(=O)O | 40 | 1

Following part.
SMILES	RmlCD inh mix	RmlCD inh mix retest
CCOC(=O)CSc1nc2ccc(NC(=O)CSc3nnnn3Cc3ccccc3)cc2s1	72	-1
Cc1cc(NC(=O)CSc2nc(C(C)C)nc3sc4c(c23)CCCC4)no1	40	-12
CCOC(=O)CC1=C(C(=O)OCC)C(c2cc(OC)c(OC)cc2OC)C(C#N)=C(N)O1 (stereo not given)	38	-8
CCOC(=O)c1c(NC(=O)CSc2nnc(-c3cccnc3)o2)sc(C)c1C	31	8
CCc1ccccc1NC(=S)N(CCN(C)C)C(C)c1ccccn1 (stereo not given)	162	5
NCCCC[C@H](N)c1nnc([C@H](CC(=O)O)NC(=O)C2CCNCC2)o1	36	1
CN(CC(=O)Nc1cccc2ccccc12)c1ccc(S(=O)(=O)N2CCOCC2)cn1	46	4
Cc1nc2nc[nH]n2c(=O)c1CCC(C)C	i	0
Cn1c(CCNC(=O)c2ccc(Cl)c(Cl)c2)nnc1SCc1ccc(Cl)c(Cl)c1	34	-13
CCOC(=O)c1cc(-c2ccc(OC)cc2F)nc2c1c(C)nn2CCC#N	42	-55
O=C(NCSc1ccnc(SCNC(=O)c2ccc(F)cc2)n1)c1ccc(F)cc1	68	-5
COc1ccc(/C=N/n2cncn2)cc1CSc1ccccn1	67	4
COC1C(OC(=O)c2ccc(C)[nH]2)C(O)C(Oc2ccc3c(O)c(NC(=O)c4ccc(O)c(CC=C(C)C)c4)c(=O)oc3c2Cl)OC1(C)C (stereo not given)	31	5
S=C(Nc1ccc(Cl)c(Cl)c1)NC1CCCCC1	32	-7
O=C(c1nn(Cc2ccccc2)c(=O)c2ccccc12)N1CCN(c2ccccn2)CC1	96	-6

Molecules above that have a cyano group, in the order listed:
SMILES	RmlCD inh mix	RmlCD inh mix retest
CCCc1[nH]nc2c1C(CCC)C(C#N)=C(N)O2 (stereo not given)	44	-10
CN(C(=O)c1cccc(C#N)c1)c1nnc(-c2ccncc2)s1	32	23
CCCn1c(=C(C#N)C#N)s/c(=C2\C=Cc3ccccc3N2CC)c1=O	51	3
CCc1ccc2nc(N3CCN(C)CC3)c(C#N)cc2c1	96	12
CC1CN(c2oc(-c3cccs3)nc2C#N)CC(C)O1 (stereo not given)	75*	93*
CCOC(=O)CC1=C(C(=O)OCC)C(c2cc(OC)c(OC)cc2OC)C(C#N)=C(N)O1 (stereo not given)	38	-8
CCOC(=O)c1cc(-c2ccc(OC)cc2F)nc2c1c(C)nn2CCC#N	42	-55

Going on with the list.
SMILES	RmlCD inh mix	RmlCD inh mix retest
O=[N+]([O-])c1cc(Br)c(O)c(/C=N/Nc2nnnn2-c2cccc3ccccc23)c1	59	8
Cc1ccc(-c2nc3ccc(Cl)cc3n2OC(=O)N(C)C)cc1	43	2
O=C(Nc1nc(NC(=O)c2ccco2)n(-c2ccccc2)n1)c1ccccc1	138*	·
CCN(CC)C(=O)CSc1nc2ccccc2o1	85	-2
Cc1nc(NC(=O)c2oc3ccccc3c2C)sc1C(=O)N(C)C	42	-23
OCCN(Cc1ccccc1)Cc1ccc(C(F)(F)F)cc1	49	-17
CC(C)(Cl)C1Cc2cc3ccc(=O)oc3cc2O1 (stereo not given)	35	-48
O=C(Nc1ccc2oc(-c3cccnc3)nc2c1)c1ccco1	37	7
Cc1cc(C)n(-c2ccc(C(=O)OCn3nnc4ccccc4c3=O)cc2)n1	130	-8
Cc1ccc2nc(-c3ccc4c(c3)OCCO4)cc(C(=O)O)c2c1	124	-20
Cc1cccc(OCC(=O)OC2CCN(C)CC2)c1	38	6
CCOc1ccc(C2SCC(=O)Nc3c2c(C)nn3C2CCOC(C)(C)C2)cc1 (stereo not given)	40	-8
O=c1cc(O)c2ccc(O)cc2o1	104	-2
CCCNc1nc(NCC)nc(OC)n1	56	-12
N#Cc1cc2c(nc1SCC(=O)Nc1sc3c(c1C#N)CCC3)CCCCCC2	44	-6
Cc1nc(C(=O)Nc2ccccc2)sc1C1(C)CC(c2cccnc2)=NO1 (stereo not given)	31	-3
O=c1oc2ccccc2cc1-c1nc(-c2cccs2)cs1	91	-27
Nc1nc2n(n1)C(c1cccs1)CC(c1ccc(F)cc1)N2 (stereo not given)	32	-8
CCCn1c(-c2ccc(OC)cc2)nc2nc3ccccc3nc21	32	20
c1ccc2nc(-c3ccc(N4CCOCC4)cc3)ccc2c1	68	i
COc1ccc(-c2nnn(CC(=O)c3ccc4c(c3)OCCO4)n2)cc1OC	158	6
Cn1c(Cc2ccc3c(c2)OCO3)nnc1SCC(=O)N1CCc2ccccc2C1	32	1
CCOC(=O)c1cc(C(=O)OCC)c2ccccn2c1=O	71*	·
CC1CN(S(=O)(=O)c2cccc(C(=O)OCc3cc(=O)oc4cc(O)ccc34)c2)CC(C)O1 (stereo not given)	82*	99*
COC(=O)Oc1c(Br)c(=O)oc2ccccc12	30*	43*
O=C(OCC(=O)N1CCN(C(=O)c2ccco2)CC1)c1cc(-c2ccc(F)cc2)nc2ccccc12	37	-21
COc1ccc2[nH]c3c(N4CC(C)OC(C)C4)ncnc3c2c1 (stereo not given)	38	6
CN1CCC(=NNC(=O)CSCc2ccccc2)CC1	40	-3
CCC(=NCc1cccnc1)c1c(O)n(Cc2ccccc2)c(=O)[nH]c1=O	47	-6
COc1ccc(N(CC(=O)N2CCN(C)CC2)S(C)(=O)=O)cc1OC	69	8
Cc1c(NC(=O)CN2CCCc3ccccc32)c(=O)n(-c2ccccc2)n1C	75	3
